Bioassay records from PubChem BioAssay.
gsp antag = antagonizes gsp, the McCune-Albright syndrome mutation. gsp-mutant cells, cAMP HTRF, 30 min; control for the full effect not named in the record. Potency, µM (titrated, usually from 76.9 µM), inactives show at the top dose activity change, negative = inhibition, hits mostly inhibitors. hit rate 0.4% among 340,000; active = falling curve of any shape with a large fitted effect; inconclusive = falling curve, mostly with a smaller effect; inactive = flat or rising curve; cell line not stated here;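 note: intracellular cAMP measured with PDE inhibitor Ro 20-1724 present during compound exposure; potency is the fitted concentration of half-maximal effect; % is set by controls: 0 for no effect and ±100 for the full control effect; nearly all actives have a fitted effect of over 65% in size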
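HTRF cAMP read-out (cAMP-d2 plus anti-cAMP antibody-K in lysis buffer, 30 min RT). Before lysis, cells are exposed to compounds with […] for 30 min at 37C in DPBS containing Ca/Mg, BSA and Tween 20.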
Menin-MLL FL inh = displaces fluorescein MLL peptide from human menin | Fluorescence polarization, fluorescein-MLL peptide displacement from menin | 290,000 tested, under 10 active | AID 1766 | FP activity change, % at 61.4 µM; inconclusive = falling polarisation curve, or a change in total fluorescence; inactive = total fluorescence flat and polarisation flat or rising; no compound was filed as active; the % refers to the polarisation; negative = inhibition;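 note: % of control where 0% means no effect; inhibitors lower the polarisation; unlabelled MLL peptide was the positive control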
gsp ag = agonists of gsp mutant (McCune-Albright syndrome); gsp mutant cells, cAMP HTRF, 30 min; control for the full effect not named in the record; Potency, µM (top dose mostly 76.9 µM), inactives show at the top dose activation (cAMP increase), usual class: activators; hit rate 0.13% among 340,000; active = well fitted activation curve with a large enough effect; inconclusive = small, poorly fitted or top-dose-only effect, or another doubt; inactive = no such curve, though single readings can be large or run the other way; cell line not stated here;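 note: phosphodiesterase inhibitor Ro 20-1724 added with compounds to block cAMP breakdown; potency is the fitted concentration of half-maximal effect; nearly all actives have a fitted effect of over 60% in size; about a fifth of the inactives were tested at one dose only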
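Cells in DMEM/10% FBS with G418 were pretreated with compounds in DMSO plus […] (300 uM stock) for 30 min at 37C. cAMP was measured by HTRF (cAMP-d2 plus anti-cAMP antibody-K) after 30 min at room temperature.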
TRPV1 PAM = potentiators of human vanilloid receptor 1 (TRPV1). Q8NER1. TRPV1-expressing cells, Fluo-8 calcium influx, capsaicin EC20 potentiation; host cell line not named in the record; control for the full effect not named in the record. potentiation, % at 8.33 µM. hit rate 0.02% among 320,000; active means potentiation above 80%; inconclusive means 30% to 80%; inactive means below 30%; note: 0% is about no effect
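Fluo-8 calcium influx in TRPV1-expressing cells, kinetic read (ex 480/em 520 nm). Compound added and read 3 min for agonist activity, followed by capsaicin at EC20 final and 2 min further read for enhancement.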
Sfp inh = blocks B. subtilis Sfp PPTase activity; Biochemical Sfp PPTase activity, qHTS; Potency, µM, for inactives: max response, negative = inhibition, actives largely listed as inhibitors; hit rate 3.5% among 310,000; active = well fitted inhibition curve with a large enough effect; inconclusive = small, poorly fitted or top-dose-only effect, or another doubt; inactive = no such curve, though single readings can be large or run the other way;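 note: the enzyme is Sfp with the accession as filed and its product quenches rhodamine fluorescence; potency is the fitted concentration of half-maximal effect; 0% = enzyme reaction without inhibitor and -100% = no enzyme wells; top concentration of the series not given in the record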
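Fluorescence-quenching assay: 15 nM Sfp-PPTase preincubated 15 min at room temperature with compound, then 5 uM rhodamine-CoA and 12.5 uM BHQ-2-labelled YbbR peptide added. Fluorescence (ex 525/em 598 nm) read at start and after 30 min; difference gives rate.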
D2 PAM = human D2 receptor positive allosteric modulation. DiscoveRx D2 beta-arrestin cells, luminescence, 90 min; 100% = 57 uM dopamine signal. potentiation, % (no concentration beside the values). hit rate 0.23% among 360,000; active = potentiation of 50% or more; inconclusive = 30% to 50%; inactive = 30% or less;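 note: compound concentration not given in the record; tested on top of an EC20 dose of dopamine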
Target sequence (P14416 whole entry, looked up): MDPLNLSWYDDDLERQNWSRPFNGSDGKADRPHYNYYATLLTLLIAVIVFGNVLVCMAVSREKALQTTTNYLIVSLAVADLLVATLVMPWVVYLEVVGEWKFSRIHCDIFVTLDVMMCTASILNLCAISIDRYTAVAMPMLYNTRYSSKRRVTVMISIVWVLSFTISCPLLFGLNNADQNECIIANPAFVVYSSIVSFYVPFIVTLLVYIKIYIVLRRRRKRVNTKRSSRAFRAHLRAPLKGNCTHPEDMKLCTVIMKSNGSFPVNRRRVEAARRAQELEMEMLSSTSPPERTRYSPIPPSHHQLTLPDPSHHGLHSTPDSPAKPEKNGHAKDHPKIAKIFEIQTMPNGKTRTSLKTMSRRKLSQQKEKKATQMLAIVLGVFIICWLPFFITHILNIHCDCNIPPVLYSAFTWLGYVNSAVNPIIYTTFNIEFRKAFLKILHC
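PathHunter beta-arrestin assay in DiscoveRx D2 cells. Compounds were added with an EC20 of dopamine (50 nM final) for 90 min at 37 deg C. Luminescence was read 1 h after detection reagent, with 57 uM dopamine as the EC100 control.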
ClpP mod = qHTS Assay for Activators of ClpP; purified B. subtilis ClpP, FRET peptide cleavage, 20 min; Potency, µM (series often up to 57.5 µM), for inactives: at the top dose activity change, negative = active; hit rate 1.9% among 340,000; active = well fitted falling curve with a large enough effect; inconclusive = small, poorly fitted or top-dose-only effect; inactive = no such curve, though single readings can be large or run the other way; note: potency is the fitted concentration of half-maximal effect; the source files actives as falling curves though it sought activators and does not explain the sign; nearly all actives have a fitted effect of over 65% in size; many hits overshoot -100%
Target sequence (P80244 whole entry, looked up): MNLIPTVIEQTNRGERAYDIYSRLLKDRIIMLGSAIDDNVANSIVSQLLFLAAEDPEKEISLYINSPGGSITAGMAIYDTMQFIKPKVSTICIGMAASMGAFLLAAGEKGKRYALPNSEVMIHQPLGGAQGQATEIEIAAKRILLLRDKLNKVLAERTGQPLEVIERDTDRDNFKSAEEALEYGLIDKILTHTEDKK
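ClpP 10 microg/mL final, pH 8 Tris/KCl buffer with BSA, glycerol, Tween-20; compound pinned in; FRET-FV substrate; RT 20 min; Ex320/Em430; ΔFRET vs ADEP 5.8 microM, DMSO, no enzyme.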
* hit, by the source's call; ? = inconclusive; . = not tested or not shown; & = joins results of further samples; [ ] = remark or other dose.

Order of results – gsp antag	Menin-MLL FL inh	gsp ag	TRPV1 PAM	Sfp inh	D2 PAM	ClpP mod
1. O=c1c([N+](=O)[O-])c(N2CCOCC2)c2ccccc2n1-c1ccccc1
 : 2%	-3.4	3%	-4	24%	0	1.2%
2. O=C(O)CSC1c2ccccc2C(=O)N1Cc1ccccc1 (stereo not given)
 : -5%	3.5	1%	9	3%	-5	-1.4%
3. Cc1csc(NC(=O)c2nc3nc(C)cc(C)n3n2)n1
 : 8%	0.4	27%	?	-16%	4	-2.4%
4. O=C(Nc1ccc(-c2nc3ccccc3[nH]2)cc1)c1ccco1
 : -8%	2.3	-24%	12	-22%	13	-1.6%
5. COc1ccc(NC(=O)c2cc3c(Cl)nc4ccccc4c3s2)cc1OC
 : 28%	1.4	-11%	-1	5%	11	-14%
6. CCOc1ccc2ccccc2c1/C=N/n1cncn1
 : -5%	4.5	5%	1	-10%	5	-2.9%
7. CCC(C)c1ccccc1N=Cc1ccc2c(c1)OCO2 (stereo not given)
 : 4%	-6.9	-10%	1	3%	-1	.
8. COc1ccc(N2C(=O)CC(NNC(=O)c3cccnc3)C2=O)cc1 (stereo not given)
 : -3%	0.3	11%	3	16%	-5	0.9%
9. O=C(Nc1ccc(S(=O)(=O)Nc2nccs2)cc1)c1cnc(Cl)c(Cl)c1
 : -24%	?	3%	-10	-2%	-7	0.8%
10. CC(C)(C)c1ccc(-n2ncc3c2CCCC3NC(=O)CCn2cncn2)cc1 (stereo not given)
 : -5%	.	3%[15.4 µM]	-14	-2%	-2	-0.8%
11. CC(C)Oc1ccc(CNC2CCOC(C)(C)C2)cc1 (stereo not given)
 : 14%	-1.3	-25%	0	9%	-18	0.0%
12. C/C(=N\NC(=O)c1ccccc1)c1ccc(-n2ccnc2)cc1
 : -2%	0.7	-1%	-6	4%	-4	-1.3%
13. CCC(C)NC(=O)c1ccccc1-c1nc2ccccc2[nH]1 (stereo not given)
 : -10%	-0.2	4%[15.4 µM]	-1	9%	-10	.
14. COc1cccc(C(=O)N2CCC(N3CC(C)OC(C)C3)CC2)c1 (stereo not given)
 : 12%	1.1	-17%	2	-23%	-8	-0.3%
15. CCOC(=O)c1c(N)sc(C(=O)Nc2ccccc2F)c1C
 : -5%	1.0	2%	3	14%	-2	-1.6%
16. CCOc1ccc(S(=O)(=O)N(CC)CC)cc1NS(=O)(=O)c1ccc(F)c(F)c1F
 : 3%	0.9	-5%[15.4 µM]	-2	15%	-12	-3.8%
17. CCOC(=O)C1=CN(c2cccc(F)c2)C=C(C(=O)OCC)C1c1cc(OC)c(O)c([N+](=O)[O-])c1
 : -11%	-1.8	-19%	-21	-30%	-9	2.8%
18. COc1ccc(NC(=O)C2CCCCN2S(=O)(=O)c2ccccc2)cc1S(=O)(=O)N1CCOCC1 (stereo not given)
 : 4%	.	-12%	.	.	4	2.5%
19. CC(C)(C)c1ccccc1NC(=O)C1=COCCO1
 : 9%	.	2%[15.4 µM]	-7	.	-4	.
20. Cc1cc(C)nc(SCc2nnc(SCC(=O)Nc3ccc(C)c(C)c3)n2Cc2ccco2)n1
 : -14%	4.3	19%	-38	?	-18	1.8%

(listing goes on)
Order of results – gsp antag	Menin-MLL FL inh	gsp ag	TRPV1 PAM	Sfp inh	D2 PAM	ClpP mod
21. CSc1nc2cc(S(=O)(=O)N3CCOCC3)ccc2s1
 : 1%	-4.7	-37%[inhibitor]	19	-25%	-7	-3.5%
22. CC(=O)Nc1ccc(S(=O)(=O)N(C)CC(=O)OCC(=O)N2CCCC2=O)cc1
 : -4%	.	-1%[15.4 µM]	1	.	-3	0.1%
23. CCCCOC(=O)c1nc[nH]c1C(=O)OCCCC
 : 3%	0.0	-2%[15.4 µM]	17	20%	-1	-1.1%
24. COc1cc(C(=O)N2CCN(S(=O)(=O)c3ccc(Cl)cc3)CC2)ccc1OCC(=O)N1CCOCC1
 : -1%	.	-29%	.	.	-2	-11%
25. NC(=O)c1c(N)sc(=S)n1CC1CCCO1 (stereo not given)
 : 3%	-0.4	-50%[inhibitor]	.	15%	7	-1.3%
26. Cc1ccc(C(=O)Nc2ccc(Br)c(C(F)(F)F)c2)cc1
 : ?	-5.0	-16%	4	12%	-15	-17%
27. CC1(C)CC(=O)C=C(C(=O)N2CCCC(CCC(=O)NCc3ccccc3F)C2)O1 (stereo not given)
 : -2%	-6.4	28%	0	15%	-4	-0.5%
28. CCC(=O)Nc1c(C)nn(C(=O)CC)c1C
 : 6%	1.3	15%	7	11%	8	-0.3%
29. CCOC(=O)c1c(NC(=O)Cn2cnc([N+](=O)[O-])n2)sc2c1CCCC2
 : -13%	2.4	-7%	-9	-28%	4	-2.3%
30. Cc1[nH]c2ccccc2c1C(=O)CN1C(=O)C(=O)N(Cc2ccco2)C1=O
 : 1%	-2.5	-2%[15.4 µM]	-3	-28%	-3	28µM*
31. O=C(NCCCN1CCCC1=O)c1c(O)nc2sccn2c1=O
 : 6%	.	?	3	.	10	-9.4%
32. COc1ccc(S(=O)(=O)Nc2ccc(S(=O)(=O)Nc3cc(C)nc(C)n3)cc2)cc1OC
 : 19%	11	-1%[15.4 µM]	-17	12%	-8	.
33. CCOc1cc(N2CCOCC2)c(OCC)cc1NC(=O)CSc1ncn[nH]1
 : 18%	1.4	4%[15.4 µM]	6	-64%	0	.
34. CC1(C)CC(NC(=O)c2ccc(Cl)c(Cl)c2)CC(C)(C)N1
 : 7%	-2.1	22%	16	16%	-2	-0.5%
35. COc1ccc(NC(=O)c2cc3cccc(OC)c3oc2=Nc2ccc(C(=O)O)cc2)cc1OC
 : -27%	0.2	?	7	7%	10	-2.4%
36. Cc1cc(-c2cc(C(=O)O)c3ccccc3n2)c(C)s1
 : 0%	1.8	?	0	-9%	3	.
37. Cc1ccc(NS(=O)(=O)c2cc(-c3n[nH]c(=O)c4ccccc34)ccc2C)cc1
 : -19%	2.0	-25%	8	-15%	2	-3.3%
38. O=C(NNC(=O)C1CC1)c1ccccc1[N+](=O)[O-]
 : 7%	.	1%	-6	16%	9	0.4%
39. O=c1c2ccccc2cnn1-c1ccc2ccccc2c1
 : -7%	-0.7	-1%	16	6%	3	-5.6%
40. CC(C)OC(=O)CSc1nnc(-c2ccncc2)n1N
 : 11%	1.8	-6%	7	6%	-6	-1.0%

Following part.
Order of results – gsp antag	Menin-MLL FL inh	gsp ag	TRPV1 PAM	Sfp inh	D2 PAM	ClpP mod
41. O=S(=O)(Nc1nc2ccccc2nc1NCC1CCCO1)c1cccc(Cl)c1 (stereo not given)
 : -27%	-0.1	9%[15.4 µM]	?	2%	1	.
42. COc1ccc2[nH]c3c(N4CCN(Cc5ccc6c(c5)OCO6)CC4)ncnc3c2c1
 : 40µM*	-0.2	11%	-13	-5%	-21	?
43. CC(C)(C)NC(=O)C(c1ccncc1)N(Cc1ccco1)C(=O)c1ccc(-c2ccccc2)[nH]1 (stereo not given)
 : -4%	10	-8%[15.4 µM]	-12	-90%	-9	.
44. COC(=O)c1ccc2c(c1)N(C)S(=O)(=O)c1cnc(SCC(=O)C(C)(C)C)nc1-2
 : -5%	1.8	?	3	12%	-6	.
45. Cc1ccc(CNC(=O)C2CCN(S(=O)(=O)c3c(C)noc3/C=C/N(C)C)CC2)cc1
 : -8%	.	-20%	?	4%	-10	-2.4%
46. CCOc1ccccc1N(CC(=O)Nc1ccccc1Br)S(=O)(=O)c1ccccc1
 : .	.	-93%[inhibitor]	.	.	4	2.1%
47. Cc1cc(C)c([N+](=O)[O-])cc1NCC(=O)N1CCN(c2ccccc2)CC1
 : -24%	0.4	19%	-8	-6%	-5	0.5%
48. CCc1nnc(NC(=O)c2ccc(S(=O)(=O)N(C)c3ccccc3)cc2)o1
 : -23%	-0.2	13%	?	19%	-2	-0.4%
49. COc1ccc(NC(=O)c2cc(C)nc3ccccc23)cc1S(=O)(=O)N1CCOCC1
 : -3%	.	8%[15.4 µM]	.	.	-39	-2.2%
50. O=C(O)C1OC(Oc2c(-c3ccc(O)c(O)c3)oc3cc(O)cc(O)c3c2=O)C(O)C(O)C1O (stereo not given)
 : 3%	6.6	-53%[inhibitor]	-1	-10%	-11	-2.4%
51. COc1ccc(-c2csc3ncnc(N4CCN(c5ccccc5Cl)CC4)c23)cc1
 : -6%	.	-12%	-40	5%	-13	?
52. Cc1ccc2cc(C(=O)O)c(C)nc2c1
 : -1%	4.0	10%	?	-21%	-11	0.7%
53. CCC(CC)C(=O)Nc1nnc(S(=O)(=O)N2CCc3ccccc32)s1
 : 3%	-19	-1%	-1	10%	2	3.1%&-1.0%
54. CC(=O)NC1C(=O)N(CCN2CCOCC2)c2ccc(Br)cc21 (stereo not given)
 : -1%	-25	-21%	-15	?	-22	-2.0%
55. CCOc1ccccc1NC(=O)C(OC(=O)c1ccc(CC)cc1)c1ccccc1 (stereo not given)
 : 4%	4.6	-59%[inhibitor]	13	-2%	-2	-1.7%
56. COC(=O)c1ccc(C(NC(=O)OCc2ccccc2)/C(F)=C/[C@@H](C)C(=O)NCc2ccc(OC)c(OC)c2)cc1 (stereo not given in full)
 : -6%	2.9&-1.2	.	-26	17%&30%	-5	-0.8%
57. COc1ccc(CC(=O)O/N=C(\N)c2cccc([N+](=O)[O-])c2)cc1
 : -3%	0.2	-19%	0	-13%	14	.
58. COc1ccc(CCn2c(=S)[nH]c3cc(C(=O)N4CCOCC4)ccc3c2=O)cc1OC
 : -26%	2.2	7%[15.4 µM]	?	-18%	10	.
59. CCC(NC(=O)C1(C)CC1(Br)Br)c1ccc(C)cc1 (stereo not given)
 : -4%	44[activator]	-34%[inhibitor]	3	6%	-3	-0.7%
60. CC(=O)Nc1ccc2c(c1)CCCC2=O
 : 0%	-2.5	-8%	3	-4%	16	-0.1%
